Lassa entry inh: inhibitors of Lassa virus binding or cell entry; AID 540256; Lassa virus pseudotype entry inhibition, cell reporter; control for the full effect not named in the record; 300,000 compounds, 1.2% hits; Potency, µM (series often up to 37.9 µM), without a hit: at the top dose activity change, negative = inhibition, most hits filed as inhibitors; active means well fitted inhibition curve with a large enough effect; inconclusive means small, poorly fitted or top-dose-only effect, or effect the other way; inactive means flat fitted curve, though single readings scatter; tested in HEK293 cells; note: % is set by controls: 0 for no effect and ±100 for the full control effect; nearly all actives have a fitted effect of over 50% in size; luciferase read-out
SARS PLpro yeast: inhibitors of SARS-CoV papain-like protease in yeast; S. cerevisiae expressing SARS-CoV PLpro, growth rescue; control for the full effect not named in the record; Potency, µM (top dose mostly 32.9 µM), inactives show at the highest dose activity, positive = growth rescue; 330,000 compounds, 0.19% hits; AID 485353; active means well fitted rising curve with a large enough effect; inconclusive means small, poorly fitted or top-dose-only effect; inactive means no such curve, though single readings can be large or run the other way; note: 0% is about no effect; nearly all actives have a fitted effect of over 55% in size; growth read by luminescence after 48 h
StopGo reporter: lowers the luciferase signal of an FMDV 2A StopGo reporter | human cells with a luciferase reporter of 2A StopGo recoding; control for the full effect not named in the record | Potency, µM (titrated, usually from 57.9 µM), inactives show top-dose signal change, negative = less light | 410,000 compounds, 1.2% hits | AID 1159524; active = well fitted falling curve with a large enough effect; inconclusive = small, poorly fitted or top-dose-only effect; inactive = no such curve, though single readings can be large or run the other way; tested in HEK293T cells; note: % is set by controls: 0 for no effect and ±100 for the full control effect; nearly all actives have a fitted effect of over 45% in size; luciferase light after 4 h
Marburg entry inh: blocks Marburg virus binding to or entry into cells; Marburg virus pseudotyped entry inhibition, cell reporter; control for the full effect not named in the record; about a third of the inactives were read at about 46 µM; Potency, µM (top dose mostly 37.8 µM), inactives show at the highest dose activity change, negative = inhibition, actives largely listed as inhibitors; 300,000 compounds, 1.8% hits; AID 540276; active = well fitted inhibition curve with a large enough effect; inconclusive = small, poorly fitted or top-dose-only effect, or effect the other way; inactive = flat fitted curve, though single readings scatter; tested in HEK293 cells; about a fifth of its hits are not listed in these tables; note: % is set by controls: 0 for no effect and ±100 for the full control effect; luciferase read-out
Cruzain Triton: inhibitors of Trypanosoma cruzi cruzain with detergent; P25779; purified cruzain, Z-FR-AMC fluorescence, 0.01% Triton; Potency, µM, without a hit: max response, negative = inhibition, most hits filed as inhibitors; 200,000 compounds, 0.43% hits; AID 1478;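 note: plate controls were neutral wells for no effect and buffer without enzyme for full effect; nearly all actives have a fitted effect of over 40% in size; top concentration of the series not given in the record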
Target sequence (P25779 123-467 limits assumed): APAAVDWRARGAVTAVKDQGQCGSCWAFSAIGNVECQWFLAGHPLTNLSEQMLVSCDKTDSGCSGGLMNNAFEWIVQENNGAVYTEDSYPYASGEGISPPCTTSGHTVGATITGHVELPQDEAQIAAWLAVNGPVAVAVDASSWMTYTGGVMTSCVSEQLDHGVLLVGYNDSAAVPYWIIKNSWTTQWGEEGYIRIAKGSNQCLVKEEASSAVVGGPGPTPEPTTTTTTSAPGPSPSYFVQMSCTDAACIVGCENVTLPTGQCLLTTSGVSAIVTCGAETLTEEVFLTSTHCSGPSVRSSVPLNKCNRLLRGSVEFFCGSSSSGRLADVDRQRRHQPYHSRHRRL
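Cruzain (1.5 nM) preincubated 15 min at RT with compound in 100 mM sodium acetate pH 5.5, 5 mM DTT, 0.01% Triton X-100. Reaction started with 2 uM Z-FR-AMC; AMC fluorescence (ex 360/em 450 nm) change over 60 s gave rate.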
NS1 inh: blocks influenza NS1 protein function. Potency, µM (series often up to 46.1 µM), for the others: at the top dose activity, positive = more growth. 270,000 compounds, 0.4% hits. S. cerevisiae slowed by influenza A NS1, growth recovery by OD600; active means well fitted rising curve with a large enough effect; inconclusive means small, poorly fitted or top-dose-only effect; inactive means no such curve, though single readings can be large or run the other way; note: nearly all actives have a fitted effect of over 50% in size
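S. cerevisiae expressing influenza A NS1, grown in glucose, washed, then diluted 1:100 into pH 6.0 -URA galactose medium with 23 nl compound. Growth recovery read as OD600; NS1-free strain serves as control.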
Cruzain noTriton: blocks cruzain activity in detergent-free assay. P25779. purified cruzain, Z-FR-AMC fluorescence, no detergent. Potency, µM, for inactives: max response, negative = inhibition, actives largely listed as inhibitors. 200,000 compounds, 2.3% hits. AID 1476;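 note: plate controls were enzyme without inhibitor for no effect and buffer without enzyme for full effect; nearly all actives have a fitted effect of over 40% in size; top concentration of the series not given in the record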
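Detergent-free condition (0.00005% Triton X-100) in acetate buffer pH 5.5 with DTT. 1.5 nM enzyme and compound were pre-mixed 15 min, then 2 uM Z-FR-AMC substrate added; reaction progress from fluorescence change between first and third reads (60 s).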
RE007 growth inh: less growth of the S. pombe RE007 Vpr strain. S. pombe RE007 Vpr strain, BacTiter-Glo ATP luminescence, 24 h; control for the full effect not named in the record. Potency, µM (doses to about 92.2 µM), for the others: at the highest dose activity change, negative = less growth. 360,000 compounds, 0.21% hits; active = well fitted falling curve with a large enough effect; inconclusive = small, poorly fitted or top-dose-only effect; inactive = no such curve, though single readings can be large or run the other way;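 note: % is set by controls: 0 for no effect and ±100 for the full control effect; nearly all actives have a fitted effect of over 50% in size; the assay follows cell death caused by Vpr and the record does not say whether a fall means rescue or toxicity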
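Fission yeast strain RE007, carrying one chromosomally integrated HIV-1 vpr copy, was seeded at OD 0.01 in PMG+AL medium with 23 nL pinned compound. After 24 h at 30 °C and 99% humidity, viability was read by BacTiter-Glo luminescence.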
An asterisk follows results filed as active; ? = inconclusive; . = not tested or not shown; & = joins results of further samples; [ ] = another dose, or the depositor's remark. Unless noted, calls come from the whole dose curve; as a rule, active = well fitted curve in the direction sought with a large enough effect; inconclusive = small, poorly fitted or top-dose-only effect, or another doubt; inactive = no such curve, though single readings can be large; an effect the other way counts as inactive or inconclusive. Potency is the fitted concentration of half-maximal effect.

SMILES	Lassa entry inh	SARS PLpro yeast	StopGo reporter	Marburg entry inh	Cruzain Triton	NS1 inh	Cruzain noTriton	RE007 growth inh
Cc1ccc(-c2nnc(Nc3ccc4c(c3)OCO4)c3ccccc23)cc1S(=O)(=O)NCCO	-16%	8%	?	-15%	-3.0%	-12%	-1%	-1%
O=C(c1ccccn1)N1CCN(S(=O)(=O)c2cccc(Br)c2)CC1	0%	-4%	-21%	?	.	.	.	-3%
CC1CC(C)CN(CCCNC(=O)CN2C(=O)CSc3ccc(S(=O)(=O)N4CCCCC4)cc32)C1 (stereo not drawn)	?	0%	11%	?	.	-15%	.	-8%
O=C(NN=Cc1ccc(N(CCCl)CCCl)cc1)C(=O)c1c[nH]c2ccccc12	6.3µM*	.	2%	4.5µM*	.	.	.	26%
CC(C)(C)C(=O)Nc1ccccc1N1CCN(C(=O)c2ccc(Cl)cc2)CC1	-19%	-6%	-9%	?	-0.3%	-3%	-26%	40%
COc1cccc(CN2CC(C(=O)NCCCc3ccc(C)cc3)CCC2=O)c1 (stereo not drawn)	.	5%	4%	.	.	-2%	.	-3%
COc1cc(F)ccc1CN1CCC(C(=O)Nc2ccc(Oc3ccccc3)nc2)CC1	?	22%	?	?	.	-6%	.	-4%
CCOC(=O)c1sc(NC(=O)Nc2ccc(Cl)cc2)cc1C	?	-31%	0%	?	-1.6%	-32%	-8%	24%
CN(CC(=O)Nc1cccc(F)c1)C(=O)Cn1cnc2c1c(=O)n(C)c(=O)n2C	-4%	2%	-15%	-18%[46.1 µM]	.	.	.	11%
O=C(NCc1cccnc1)C1CC(c2cccc(Br)c2)=NO1 (stereo not drawn)	.	-3%	-6%	.	.	1%	.	4%
O=C1CC(c2ccccc2)n2ncnc2N1 (stereo not drawn)	?	-2%	4%	9%	4.5%	17%	11%	12%
CC1CCN(C(=O)Cn2ncc3c([nH]c4ccccc43)c2=O)CC1	?	-4%	-20%	5%[46.1 µM]	.	?	.	2%
Cc1ccc(CN2C(=O)c3ccccc3C2C(=O)NCC2CCCO2)cc1 (stereo not drawn)	-5%	8%	2%	-2%	8.9%	3%	10%	0%
COC(C)(C)[C@]12CC(O)(C(C)C)ON1[C@H]1CCCCC1N2O (stereo partly drawn)	12%	-1%	-8%	14%	-1.6%	-2%	1%	8%
O=C(Nc1cccc([N+](=O)[O-])c1)Nc1ccc2c(c1)OCCO2	-3%	0%	24%	-29%[46.1 µM]	.	-2%	.	-13%
CCN(C(=O)Cn1nnc2sc(-c3ccccc3)cc2c1=O)c1cccc(C)c1	19%[46.1 µM]	.	14%	11%[46.1 µM]	-4.5%	.	-4%	.
COc1ccccc1C(=O)CN1C(=O)NC2(CCc3ccccc32)C1=O (stereo not drawn)	1%	4%	12%	14%	.	.	.	-6%
O=C(CSc1nnc(-c2ccc(OC(F)F)cc2)o1)NC(=O)NCc1ccco1	-4%	7%	-5%	?	-6.1%	17%	-4%	-1%
CCCCC(=O)Oc1cc(C)[nH]c(=O)c1[N+](=O)[O-]	9%[46.1 µM]	0%	-6%	?	.	.	.	11%
O=C(COc1ccccc1)NCCc1csc(-c2cccc(F)c2)n1	20%[46.1 µM]	.	-19%	.	-9.3%	.	15%	.
COc1ccc(-c2cc(=O)oc3cc(O)ccc23)cc1	?	-2%	-15%	-30%[46.1 µM]	.	3%	.	1%
COc1cccc(C2CC(c3cccs3)=NN2C(=O)CSc2nc3ccccc3s2)c1OC (stereo not drawn)	?	2%	-16%	?	?	?	13µM*	.
CCCCNC(=S)N/N=C/c1ccccc1F	-9%	13µM*	10%	?	-9.4%	-5%	-3%	-18%
CCn1cc(S(=O)(=O)CC(=O)Nc2ccc3c(c2)OCCO3)c2ccccc21	-4%	2%	21%	-2%	-3.7%	-60%	-3%	-4%
COc1ccccc1CNC(=O)CSc1nc2ccccc2c(=O)n1CCCN1CCOCC1	-4%	1%	-17%	-11%[46.1 µM]	.	-2%	.	-14%
O=C(NCc1ccccc1)c1nc(S(=O)(=O)Cc2ccc(F)cc2)ncc1Cl	?	.	32µM*	?	-3.6%	.	9%	.
CCCc1nn2c(=O)cc(COc3cccc(NC(=O)c4ccco4)c3)nc2s1	.	?	10%	.	.	11%	.	11%
Cc1c(NC2=C(Cl)C(=O)N(c3ccccc3)C2=O)c(=O)n(-c2ccccc2)n1C	?	-3%	27%	-21%	-2.3%	-46%	-4%	-23%
Cc1cc(NS(=O)(=O)c2ccc(NC(=O)COc3ccc(Cl)cc3)cc2)no1	2%	0%	-6%	23%	-2.8%	-3%	-7%	-1%
COc1ccc(NC(=O)CN2C(=O)NC3(CCCC3)C2=O)cc1	19%[46.1 µM]	0%	2%	19%[46.1 µM]	.	-3%	.	10%
O=C(CN(C1CCCCC1)S(=O)(=O)c1ccc(Cl)cc1)NCCCO	?	1%	12%	-3%	-2.8%	-6%	7%	-5%
O=C(NC(Cc1ccccc1)C(=O)N1CCCCCC1)c1ccccc1 (stereo not drawn)	.	2%	-14%	.	.	-6%	.	-8%
Cc1cc(N/N=C/c2ccc(F)cc2)nc(-n2nc(C)cc2C)n1	?	2%	0%	?	.	-33%	.	-2%
O=C(NC(=S)NCc1ccccc1)c1ccc2c(c1)OCO2	3%	?	50%[activator]	-1%	-5.8%	16%	2%	-20%
CCC(C)N1CC23C=CC(O2)C(C(=O)OC)C3C1=O (stereo not drawn)	.	0%	8%	2%	-6.0%	-2%	4%	-2%
CSc1ccccc1NC(=O)Cc1ccc(Br)cc1	0%	1%	-16%	-7%	-6.0%	-8%	3%	-7%
COCCNC(=O)C(=O)NCC1OCCN1S(=O)(=O)c1cccs1 (stereo not drawn)	20%	0%	-11%	6%[46.1 µM]	.	5%	.	6%
Cc1cccc(-n2ncc(C(=O)N3CCN(Cc4ccccc4)CC3)c2C2CCN(C(=O)OC(C)(C)C)CC2)c1	?	.	-17%	.	-4.3%	.	?	.
CCCn1nnc(NC(=S)NC(=O)c2ccc(-c3ccc(Br)cc3)o2)n1	.	-1%	-12%	.	.	-1%	.	-24%
O=C(Nc1ccc(F)cc1)c1cccc(N2C(=O)C3C4CCC(C4)C3C2=O)c1 (stereo not drawn)	-14%	9%	-20%	-11%	-0.5%	-6%	-2%	14%
COc1ccc(OC)c(CNC(=O)c2ccc(C)c(NC(=O)c3nsc4ccccc34)c2)c1	-18%[46.1 µM]	.	15%	.	0.7%	.	-6%	.
Cc1ccnc(NC(=S)NC(=O)c2ccco2)c1	?	2%	63%[activator]	?	0.6%	6%	-7%	-28%
CC(=O)N1c2ccc(S(=O)(=O)NCC3CCC(C(=O)N4CCCC(C)C4)CC3)cc2CC1C (stereo not drawn)	.	1%	-3%	.	.	12%	.	8%
CCc1ccccc1OCCOc1ccc(C)cc1OC	8%	-4%	10%	?	1.9%	-50%	11%	-15%
O=C(NCC1CCCO1)c1ccc(NS(=O)(=O)c2cccs2)cc1 (stereo not drawn)	.	0%	-8%	.	.	4%	.	5%
CC(C)CNC1CS(=O)(=O)CC1O (stereo not drawn)	.	-1%	-30%	.	.	-5%	.	-11%
COc1cc(NC(=O)c2ccc3c(Cl)c4c(nc3c2)CCC4)cc(OC)c1OC	-17%[46.1 µM]	.	11%	?	-3.7%	.	?	.
Cc1ccc(-c2ccc(CCC(=O)O)n2-c2cccc(O)c2)cc1	11%[46.1 µM]	2%	47%&62%[activator]	13%[46.1 µM]	-17%&-11%	-4%	-14%&5%	1%
CCOc1ccc(CCNC(=O)c2nnn(CC(=O)Nc3c(C)cc(C)cc3C)c2N)cc1OCC	.	-3%	-6%	.	.	-15%	.	8%
CCOc1ccc(NC(=O)CSc2nc3c(c(=O)[nH]2)CCCC3)cc1	-15%[46.1 µM]	.	-10%	-13%[46.1 µM]	-3.2%	.	-3%	.
Going on with the list.
SMILES	Lassa entry inh	SARS PLpro yeast	StopGo reporter	Marburg entry inh	Cruzain Triton	NS1 inh	Cruzain noTriton	RE007 growth inh
CCOc1ccccc1CNC(=O)CCNC(=O)Cn1ccc2ccccc2c1=O	4%	?	13%	16%	2.1%	3%	-9%	-7%
CCCCn1c(NCCC)nc2c1c(=O)[nH]c(=O)n2C	14%	2%	3%	5%[46.1 µM]	3.6%	-9%	2%	-4%
Cc1cccc(C(=O)O)c1NC(=O)Cc1cccc2ccccc12	-9%[46.1 µM]	1%	-9%	0%[46.1 µM]	.	6%	.	-32%
CC(C)COc1ccc(C(=O)CCN2CCCCC2)cc1	-18%	-12%	-12%	?	-6.7%	-18%	3%	?
Cc1nc(C2COc3ccccc3O2)sc1C(=O)O (stereo not drawn)	1%	0%	59%[activator]	3%	.	1%	.	6%
CCOC(=O)CSc1nc2sc3c(c2c(=O)n1Cc1ccccc1)CC(C)CC3 (stereo not drawn)	3%[46.1 µM]	.	-11%	.	-4.3%	.	3%	.
COc1ccc(NC(=O)CSc2nnc(COc3ccccc3)n2Cc2ccco2)cc1OC	6%	-2%	?	-16%&-16%	-8.4%	-2%	?	10%
CCOC(=O)c1cnc(SCC(=O)NCc2ccco2)nc1N	-11%	-3%	22%	0%	-0.8%	-7%	0%	3%
COc1ccc(-c2nc3ccccc3s2)cc1NC(=O)COc1ccc(C)cc1	?	.	8%	?	0.9%	.	-17%	.
O=C(Nc1ccc(Cl)c(Cl)c1)N1CCC(N2CCCCC2)CC1	13%	6%	-13%	-13%	0.6%	2%	4%	-10%
CC(C)[C@H](NC(=O)c1ccc(Cl)cc1)C(=O)OCC(=O)N1CCN(c2ccccc2)CC1	-3%	-2%	?	-25%	.	.	.	11%
Cc1cc(C)cc(N2CCCn3c2nc2c3c(=O)n(CCN3CCOCC3)c(=O)n2C)c1	-40%	4%	-5%	-19%	4.8%	3%	6%	0%
CC(C)NC(=O)CC1Nc2c3ccccc3nc(=S)n2C1=O (stereo not drawn)	-5%	6%	-3%	-12%	-2.1%	18%	-8%	6%
